Screening results deposited in PubChem by several laboratories.
Rce1 inhib: yeast Rce1p protease inhibitors, primary screen, biochemical, fluorescence, cell-free homogeneous; 0.27% of 290,000 active; calls only; yeast membranes, quenched prenylated peptide cleavage fluorescence; CAAX prenyl protease 2 (Saccharomyces cerevisiae (strain ATCC 204508 / S288c)), Q03530; AID 2563, 2010;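 active means fall in fluorescence gain of 50% or more versus controls, with final raw signal at or below 3038400; inconclusive means same 50% fall but final raw signal above 3038400; inactive means fall in fluorescence gain under 50%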;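 further: plate controls were neutral control wells for no effect and wells lacking membranes for full effect; tested at 10 µM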
CSC inhib: cancer stem cell viability inhibitors, primary screen, luminescence | cancer stem cell-like cells viability | 1.1% of 300,000 active | inhibition, % at 7.5 µM | AID 2717, 2010;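 active means mean at 75% or more and at least half the replicates too; inconclusive means mean and replicates disagree; tested in HMLE shEcad cells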;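 further: 0% = median of negative and 100% = median of positive control wells; the first replicate is given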
HIV Env fusion: inhibitors of HIV-1 Env-driven cell-cell fusion, primary screen, HeLa-JRFL effector, CEM21 target cells, luciferase; inhibition, % at 12.3 µM; 1.1% of 360,000 active;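 active means mean replicate inhibition score of at least 50 and every replicate individually at or above 50; inconclusive means only one of the two criteria met; inactive means mean below 50 and not all replicates reaching 50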;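 further: 0% = plate neutral controls and 100% = maraviroc near 300 nM; one replicate is shown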
MT1-MMP act inh: blockers of MT1-MMP proenzyme processing, primary screen, HT1080 RFP-PRO-GFP cells, GFP/RFP fluorescence | Matrix metalloproteinase-14 (Homo sapiens), P50281 | GFP/RFP ratio fluorescence, overnight; percent of plate control window, DMSO zero | GFP/RFP ratio change, % at 20 µM | 0.061% of 360,000 active;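 active means GFP/RFP ratio change of at least 30% with cell ATP level not reduced by more than half and red fluorescence within 50% of control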; further: strong numbers were not always called active
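Compound: 20 µM single dose, 1% DMSO / System: HT1080 RFP-PRO-GFP cells / Controls: DMSO and RFP-L50D-GFP cell wells / Read-out basis: GFP/RFP fluorescence ratio / Schedule: overnight compound exposure at 37 °C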
Yeast UUG start: modulators of yeast start codon fidelity, primary screen, whole organism, S. cerevisiae, single point, plate reader. activity score, % at 18.7 µM. 0.13% of 350,000 active. S. cerevisiae UUG-firefly luciferase reporter, luminescence/redox ratio;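 active means replicate mean at a twofold rise or more, about +100% in these data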;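 further: firefly luciferase made from a UUG start codon reports start codon fidelity; reporter light over untreated wells divided by growth signal over untreated wells; some hits fall short of that in this replicate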
PABP FP inh: PABP poly(A) RNA binding inhibitors, primary screen, biochemical, fluorescence polarization, uHTS. AID 2014, 2009. 1% of 290,000 active. Polyadenylate-binding protein 1 (Homo sapiens), P11940. inhibition, % at 35 µM;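 active means 50% or more with normal probe brightness, or confirmed in later tests; inconclusive means above 50% with abnormal brightness, or retests that disagree; inactive means below 50% or failed in later tests; about a fifth of its hits are not listed in these tables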;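 further: calls also rest on retests at 20 µM and on dose response follow-up; controls were probe without protein and protein plus probe with vehicle; some compounds called inactive have numbers as strong as hits; many hits fall short of the cut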
Target sequence (P11940 whole entry, looked up): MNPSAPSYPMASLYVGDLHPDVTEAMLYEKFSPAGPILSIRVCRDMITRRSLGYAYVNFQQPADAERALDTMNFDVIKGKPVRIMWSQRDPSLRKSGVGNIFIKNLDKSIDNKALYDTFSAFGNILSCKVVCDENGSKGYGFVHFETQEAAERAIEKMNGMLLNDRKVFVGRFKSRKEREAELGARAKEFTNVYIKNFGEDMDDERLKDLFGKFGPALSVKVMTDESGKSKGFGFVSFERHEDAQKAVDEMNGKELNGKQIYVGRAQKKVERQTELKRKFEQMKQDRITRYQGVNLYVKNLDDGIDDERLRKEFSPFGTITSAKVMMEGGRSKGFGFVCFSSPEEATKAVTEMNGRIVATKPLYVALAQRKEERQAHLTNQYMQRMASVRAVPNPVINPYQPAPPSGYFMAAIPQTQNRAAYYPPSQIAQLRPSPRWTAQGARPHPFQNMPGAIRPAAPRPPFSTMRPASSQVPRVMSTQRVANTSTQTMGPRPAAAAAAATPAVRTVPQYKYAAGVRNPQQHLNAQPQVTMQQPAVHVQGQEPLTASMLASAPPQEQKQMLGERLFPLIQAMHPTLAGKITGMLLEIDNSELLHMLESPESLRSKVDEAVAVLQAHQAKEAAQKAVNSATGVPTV
eIF4H FP inh: human eIF4H binding inhibitors, primary screen, translation initiation inhibitor project, biochemical, uHTS, fluorescence polarization. inhibition, % at 35 µM. eIF4H fluorescence polarization binding assay. 0.94% of 290,000 active;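 active means 50% or more with normal probe brightness, or confirmed in later tests; inconclusive means above 50% with abnormal brightness, or retests that disagree; inactive means below 50% or failed in later tests; about a fifth of its hits are not listed in these tables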;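 further: calls also rest on retests at 20 µM and on dose response follow-up; 0% = protein and probe with vehicle and 100% = probe without protein; strong numbers were not always called active; many hits fall short of the cut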
eIF4H FP inh retest: recorded beside eIF4H FP inh, whose call it bears; inhibition, %; compound at 20 µM; confirmation average;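 mean of two retest wells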
PABP FP inh retest: also measured in PABP FP inh; calls as there; inhibition, %; compound at 20 µM; confirmation repeats;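 mean of two retest wells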
MT1-MMP act inh RFP: further read-out of MT1-MMP act inh, marked with its call; RFP signal change, %; measured here: RFP expression control read;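 0 = vehicle wells; hits needed this value within 50% of zero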
The depositor's hits bear a star; i = inactive; ? = inconclusive; · = no result given; [ ] = dose if it differs, or a comment. These rows are one share of the data (hit frequency here may not be typical).

SMILES	Rce1 inhib	CSC inhib	HIV Env fusion	MT1-MMP act inh	MT1-MMP act inh RFP	Yeast UUG start	PABP FP inh	eIF4H FP inh	others
CCN(CC)C(=O)CSc1nc2sc3c(c2c(=O)n1CCOC)CCC3	i	-11	13	0	-2	-14	-10	-4
CN(C)c1ncnc2c1nnn2C1OC(CO)C(O)C1O (configuration not stated)	·	·	-67	-15	-9	-16	·	·
COc1cccc(NC(=O)C2CCN(C(=O)[C@@H]3Cc4ccccc4CN3)CC2)c1	i	-9	-15	2	3	-11	2	2
COc1ccc(-c2nnn(Cc3nn[nH]n3)n2)cc1OC	i	-16	10	3	8	-16	36	-7
COc1cc(C(=O)Nc2ccncc2)cc(OC)c1OC	i	-3	·	21	1	-9	-9	4
COC(=O)CCC(=O)NNC(=O)C1CC1(c1ccccc1)c1ccccc1 (configuration not stated)	i	-5	3	-7	-2	-15	-5	2
Nc1nonc1-c1noc(N2CCCCC2)n1	i	-6	·	7	1	-22	-5	2
CCc1cccc(OCCn2nc(C(=O)O)c3ccccc3c2=O)c1	i	·	6	5	-1	·	-14	-1
Cc1nc2cc(N3CCCCC3)c(NC(=O)c3ccncc3)cc2c(=O)n1Cc1ccc(Cl)cc1	i	-4	·	·	·	·	-6	-14
CCN(CC)S(=O)(=O)c1ccc2c(c1)N(CC(=O)NCCc1ccc(S(N)(=O)=O)cc1)C(=O)CO2	i	2	4	-1	3	-3	2	-3
O=C(CCn1nc(-c2ccc(Cl)cc2)ccc1=O)NCc1cccnc1	i	-4	9	-1	-3	-17	-2	-12
CCOC(=O)c1c(C)nc2c(c1-c1cc(OC)ccc1OC)C(=O)c1ccccc1-2	i	-2	35	-6	-5	-15	-1	-15
CCOC(=O)c1c(CN(C)C)n(-c2ccccc2)c2cc(Br)c(O)cc12	i	-1	26	-1	-2	·	-8	-7
O=C(Nc1c[nH]c(=O)[nH]c1=O)OCc1ccccc1	·	·	-184	-6	-2	-14	·	·
c1ccc2c(c1)COC(CNC1CCCCC1)OC2	i	-7	-6	2	7	·	-4	-2
CC1CCCCC1NC(=O)CSCC(=O)O (configuration not stated)	i	-7	·	8	12	6	14	-4
Cc1cc(C)cc(NC(=O)C2CCCN2/C=C/C(=O)C(F)(F)F)c1 (configuration not stated)	i	4	19	3	5	·	2	2
CCC12CN3CCN(CC(C3)/C1=N\NC(=O)Nc1ccccc1)C2	i	4	14	0	-3	-1	19	-1
CC(=O)c1cccc(S(=O)(=O)Nc2cc(C(F)(F)F)ccc2N2CCOCC2)c1	·	·	-20	0	3	5	·	·
CC(C)c1cc(C(=O)NCc2cccnc2)no1	i	-15	·	0	6	·	2	-2
COCCNC(=O)Cn1c(=O)n(CCC(=O)NCCc2ccccc2)c(=O)c2ccccc21	i	-16	-37	-2	-1	-13	7	14
CC1(O)CC(=O)N(c2ccccc2)O1 (configuration not stated)	i	-9	-91	3	6	-3	12	-5
Cc1ccc(Oc2ncccc2CO)cc1	i	-7	11	0	-2	-12	7	4
COc1ccc(C(=O)NCc2cccnc2)cc1C(=O)NCc1cccnc1	·	-1	22	2	-1	-21	·	·
CCOc1ccc(N2CC(C(=O)NCCc3c[nH]c4ccc(OC)cc34)CC2=O)cc1 (configuration not stated)	i	-27	-11	2	-4	4	-1	-1
CCc1cc(=O)oc2c(C)c(OCC(=O)NC3CC(C)(C)NC(C)(C)C3)ccc12	i	-27	·	6	2	2	5	7
Cc1ccc(C(=O)Nc2nc3ccccc3n3nnnc23)cc1	i	4	-78	-4	2	-1	9	0
CC(=O)c1ccc(-c2ccc(C(=O)NCC(c3ccc(F)cc3)N3CCOCC3)o2)cc1 (configuration not stated)	i	-7	-6	-5	-4	2	·	·
COc1ccccc1N(C)S(=O)(=O)c1ccc(C(=O)OCC(=O)Nc2cc(C)on2)cc1	i	0	-3	3	4	-17	4	14
CCCCC(c1nnnn1CCOC)N1CCN(C(=O)c2ccco2)CC1 (configuration not stated)	i	·	·	-3	-1	-1	14	12
Cc1ccc(-c2nn(-c3ccccc3)cc2/C=N/NC(=O)c2ccc(Br)o2)cc1	i	29	·	0	-12	-8	-8	-17
CC(C)N1CCC(N2CCN(Cc3ccc(C#CC(C)(C)O)s3)CC2CCO)CC1 (configuration not stated)	·	-8	9	1	1	·	1	-8
Cc1ccc(C(=O)CCC(=O)OCC(=O)Nc2ccccc2SCC#N)cc1	·	7	-9	-33	7	·	·	·
COc1ccc(C(CC(=O)O)NC(=O)Cc2ccccc2)cc1OC (configuration not stated)	i	-4	9	5	5	-8	1	-2
COc1ccccc1CNC(=O)CSc1ccc(-c2ccccn2)nn1	i	-6	7	-2	-1	·	?	-4
CC1CN(C2CCN(S(=O)(=O)c3ccccc3)CC2)CC(C)O1 (configuration not stated)	i	-7	-44	1	2	-15	5	1
Cc1ccc2c3c(cccc13)-c1ccccc1C2=O	i	11	·	-14	0	0	9.9*	90*	eIF4H FP inh retest=90*;PABP FP inh retest=89*
COc1ccc(C2(O)CCN(Cc3nnnn3Cc3ccc(F)cc3)CC2)cc1	i	·	·	3	0	2	-3	1
COc1ccccc1C1CC(=O)Oc2c(C(C)C)ccc(C)c21 (configuration not stated)	·	·	12	1	4	-25	·	·
O=C(Nc1nnc(Cc2ccc(F)cc2)s1)Nc1ccccc1F	i	26	6	9	2	-10	-4	6
Cc1cccc(-n2c(-c3ccncc3)n[nH]c2=S)c1	i	-5	·	5	5	-12	10	-6
O=C(COc1ccc(F)cc1)NC1CC1	i	8	-73	2	2	-8	-10	-5
Cc1ccc2c(c1)N(CC(=O)N1CCCc3ccccc31)C(=O)C(C)O2 (configuration not stated)	i	-9	-2	9	7	-6	-2	-2
COc1cc2ncnc(NCc3cccc(Cl)c3)c2cc1OC	i	44	43	6	-6	·	-3	5
CN1CCN(c2ncnc3c2ncn3[C@H]2CN(Cc3ccc(-c4ccccc4)cc3)C[C@@H](CO)O2)CC1	·	·	-8	-3	-16	1	·	·
O=C(O)COc1ccc(Cl)cc1C1CCCCC1	·	·	-5	-3	5	-15	·	·
Cc1sc(NC(=O)CCC(=O)O)c(C(N)=O)c1-c1ccccc1	i	5	9	2	8	·	7	9
[O-][n+]1ccc(OCc2ccccc2)cc1	i	-7	1	-1	0	·	·	·
Cc1c(CN2CCCC(C(=O)c3cccc(OC(C)C)c3)C2)c(=O)n(-c2ccccc2)n1C (configuration not stated)	i	-8	17	0	2	-16	1	-3
CSc1ccccc1OCc1cc(C(=O)NC2CCc3ccccc32)no1 (configuration not stated)	i	10	1	-3	-2	-7	-4	-8
Next section:
SMILES	Rce1 inhib	CSC inhib	HIV Env fusion	MT1-MMP act inh	MT1-MMP act inh RFP	Yeast UUG start	PABP FP inh	eIF4H FP inh	others
Cc1ccc(C)n1-c1nn(S(=O)(=O)c2ccccc2)c2cccc(F)c12	i	21	21	6	-8	-12	11	4
Cc1ccc(-c2nc(CN3CCCC(C(=O)N4CCOCC4)C3)c(C)o2)cc1 (configuration not stated)	i	-5	-18	-5	0	-17	0	4
COc1ccc(N2CC(O)=C(c3nc(-c4ccccc4)cs3)C2=N)cc1	i	-25	8	1	2	-22	-4	-1
CCC(=O)N(CCCN(C)C)c1nc(-c2cc(OC)ccc2OC)cs1	i	-14	-17	-9	-3	-6	-5	-15
COc1cc(C(=O)Nc2nc(-c3cccs3)cs2)cc(OC)c1OC	i	·	·	-10	-20	-5	-8	-7
O=C(Nc1ccc(Cl)cc1)N[C@@H]1CC[C@H](CCNS(=O)(=O)c2ccccc2F)O[C@@H]1CO	·	·	18[16.7 µM]	5	-4	14	·	·
CCC/C(=N/NC(=O)c1ccccc1Cl)c1ccccc1	i	17	-5	0	-2	-5	15	-3
CCN(C(=O)COc1cccc2cccnc12)C1CCS(=O)(=O)C1 (configuration not stated)	i	-11	1	-3	9	·	5	11
Cc1ccc(S(=O)(=O)N2CN(CC3CCCO3)c3nc4ccccc4nc32)c(C)c1 (configuration not stated)	i	3	7	-4	0	-10	-1	-11
C=CCC1c2cccc(C(=O)O)c2C(=O)N1c1cccc(C)c1 (configuration not stated)	i	5	·	3	1	8	9	-1
COc1ccccc1NC(=O)CN(Cc1ccco1)C(=O)c1cccs1	i	9	-99	3	-2	-2	18	-9
Cc1ccnc(NS(=O)(=O)c2ccc(NC(=O)/C=C/c3ccccc3)cc2)n1	i	11	-5	-3	4	-20	-10	7
O=C(/C=C/c1ccco1)N1CCN(S(=O)(=O)c2ccc(F)c(F)c2F)CC1	i	-14	-7	2	6	-1	-9	-3
CCCN(C(=O)CSc1nnc2ccccn12)C1CCS(=O)(=O)C1 (configuration not stated)	·	-14	·	-4	5	-19	·	·
COc1ccc(-n2sc3ccccc3c2=O)cc1	·	·	-44	6	-1	-32	·	·
CC(C)CCN1C(=O)c2ccc(C(=O)OCn3nnc4ccccc4c3=O)cc2C1=O	i	-9	-2	-16	-11	-5	-4	-5
CCOC(=O)Cc1csc(NC(=O)COc2cccc(C)c2)n1	i	-1	14	0	3	·	6	-3
CCn1cc(/C=C(\NC(=O)c2ccccc2OC)C(=O)N2CCOCC2)c2ccccc21	·	·	-240	0	2	3	·	·
Cc1cc(=O)oc2cc(NC(=O)COc3cccc(C(F)(F)F)c3)ccc12	·	0	·	1	-1	-46	·	·
CCn1c(=O)c(C(=O)NNS(=O)(=O)c2ccc(C)cc2)c(O)c2ccccc21	i	18	-6	-4	-3	-5	0	5

4 compounds out of the list, sorted by molecular weight, falling.
SMILES	Rce1 inhib	CSC inhib	HIV Env fusion	MT1-MMP act inh	MT1-MMP act inh RFP	Yeast UUG start	PABP FP inh	eIF4H FP inh	others
CC(C)CCN1C(=O)c2ccc(C(=O)OCn3nnc4ccccc4c3=O)cc2C1=O	i	-9	-2	-16	-11	-5	-4	-5
O=C(/C=C/c1ccco1)N1CCN(S(=O)(=O)c2ccc(F)c(F)c2F)CC1	i	-14	-7	2	6	-1	-9	-3
COc1ccccc1NC(=O)CN(Cc1ccco1)C(=O)c1cccs1	i	9	-99	3	-2	-2	18	-9
CCOC(=O)Cc1csc(NC(=O)COc2cccc(C)c2)n1	i	-1	14	0	3	·	6	-3

The list continues.
SMILES	Rce1 inhib	CSC inhib	HIV Env fusion	MT1-MMP act inh	MT1-MMP act inh RFP	Yeast UUG start	PABP FP inh	eIF4H FP inh	others
COc1ccc(NC(=O)CNc2cc(S(=O)(=O)N3CCOCC3)ccc2NCC2CCCO2)cc1 (configuration not stated)	i	-6	9	6	2	-15	24	13
CCc1cc(=O)oc2cc(OCC(N)=O)c(Cl)cc12	i	-24	-462	4	1	-10	-8	-6
CCc1ccc(C(=O)CCC2CCCCC2=O)cc1 (configuration not stated)	i	-5	·	2	1	-14	-6	8
O=C(Cn1c(=O)oc2ccccc21)Nc1ccc(Cl)cc1	i	0	-1	-2	-2	-20	-3	1
Cn1c(=O)c(=O)n(C)c2cc(N3CCCCC3)c(NS(=O)(=O)c3ccc(Br)cc3)cc21	i	6	5	-3	-4	-11	4	-15
O=C(OCc1ccc(F)cc1)c1ccc2ccccc2n1	i	-10	8	-4	-5	-12	15	19
CC(=O)Nc1ccc(NC(=O)CCCCCn2nnc3ccccc3c2=O)cc1	i	3	-1	4	4	-10	-5	-3
